# Screening data (PubChem BioAssay)
# Bead autofluor = flagged as autofluorescent in microsphere protease counterscreen; fluorescence intensity (concentration not given with the values); compound autofluorescence counterscreen, microsphere flow cytometry; stronger effect = higher value; actives 3.1% (n = 360,000); AID 624483;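 active = at least 3 SD above the mean of all compounds, about 16000 in these data; inconclusive = too few beads counted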;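 note: 100 nL of 1 mM stock went into each well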
# PrP 5UTR inh = inhibition of PrP 5' UTR reporter expression. AID 488862, 2010. inhibition, % (concentration not given with the values). cell-based PrP 5' UTR mRNA reporter, plate reader. actives 0.35% (n = 340,000);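 active = every replicate at 50% or more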;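 note: 0 = median of the neutral control wells; tested in H4 reporter cells; numbers are from one replicate; inactives centre near -14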
# RN4220 kill = growth inhibition of S. aureus RN4220, primary screen, OD600; inhibition, % (test concentration not listed); AID 1259311, 2017; 16 h; actives 0.33% (n = 330,000);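 active = z-score of -3 or lower and OD600 up to 0.18 on both plates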;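 note: plate controls were untreated cells for no effect and reference antibiotic for full effect; stock transfer was 100 nL into about 80 µL; one replicate is shown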
# BJeLR lethal = MLPCN primary cell-based screen for lethality selective to Ras in HRASV12 cells | BJeLR (HRASV12) viability, CellTiter-Glo ATP luminescence, 48 h; reference of the scale not given here | actives 0.17% (n = 300,000) | inhibition, % (no concentration beside the values) | AID 1554, 2009;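 active = replicate mean above 50%; inconclusive = above 50% but judged a plate artefact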;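 note: 50 nL library stock added to about 25 µL; numbers are from one replicate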
# Mtb hypoxia inh = PubChem AID 1159583; M. tuberculosis hypoxia-regulated fluorescent reporter, fluorescence; fluorescence inhibition, % (no concentration beside the values); actives 0.1% (n = 300,000);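 active = 35 to 45% if threefold the growth effect, above 45% if 1.5-fold the growth effect; inactive = the rest, general growth blockers included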;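 note: wells of about 50 µL received 100 nL stock; 0% = vehicle wells and 100% = reference inhibitor wells; whole bacteria with a GFP reporter of the hypoxia response; strong numbers were not always called active; many hits fall short of the cut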
# ugtP null kill = growth inhibition of ugtP-null S. aureus, primary screen, RN4220 ugtP deletion, OD600; 16 h; some inactives read as strong as hits; actives 0.54% (n = 330,000); growth inhibition, % (no concentration beside the values);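 active = z-score under -3 and OD600 up to 0.15 on both plates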;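 note: plate controls were untreated wells for no effect and antibiotic for full effect; wells of about 80 µL received 100 nL stock; the first replicate is given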
# Mtb hypoxia inh growth = further read-out of Mtb hypoxia inh, marked with its call; growth inhibition, %; measured here: M. tuberculosis growth (absorbance);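 0% = vehicle and 100% = reference antibiotic; read after six days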
# Starred values were filed as active, the others as inactive; ? = inconclusive; . = no result given.
SMILES,Bead autofluor,PrP 5UTR inh,RN4220 kill,BJeLR lethal,Mtb hypoxia inh,Mtb hypoxia inh growth,ugtP null kill
COc1ccccc1CNC(=O)CN(C)CC(=O)Nc1ccc(F)c(F)c1F,.,-10,5.5,.,5,1,4
O=C(CSc1ccc2nnc(CCNC(=O)c3ccccc3)n2n1)NCc1ccccc1,5752,-4,-1.0,0,-4,8,0
CCOC(=O)C1(CCOc2ccccc2)CCN(Cc2cccc(OC)c2OC)CC1,3337,1,0.0,5,4,-9,2
Brc1ccc(-c2csc(NNC3=NCCCCC3)n2)cc1,4071,-10,-2.9,10,5,5,-44
O=C(CCC1CCCN(C(=O)c2ccccc2Cl)C1)N1CCN(c2ccccn2)CC1 (stereo not given),5161,-14,2.1,3,1,4,0
COC(=O)C1CCN(C(=O)C2CCC(=O)N(CCc3cccc(F)c3)C2)CC1 (stereo not given),6097,-23,4.4,10,10,4,4
O=C(NN=C1CC2CC=CC12)c1ccccc1Cl (stereo not given),.,.,1.3,.,11,1,1
C=CCNC(=O)C1CC(=O)N(c2ccc(OCc3ccccc3Cl)cc2)C1 (stereo not given),3412,-28,-0.9,-4,1,-4,0
Cc1ccccc1NC(=S)N(CCCN1CCOCC1)Cc1ccccn1,2551,-15,5.6,15,13,3,7
Cc1csc(NC(=O)c2sccc2C)n1,4250,-36,2.9,22,1,-6,6
c1ccc2c(c1)CCc1c-2nc2ccccc2c1N1CCOCC1,4331,13,-2.9,5,-7,15,-6
COC(=O)N/N=C/c1ccc(/C=N/NC(=O)OC)cc1,4250,-27,.,-11,.,.,.
Cc1ccccc1NCC(=O)NN=Cc1c(C)c(C(=O)c2ccc(Cl)cc2)n2ccccc12,.,.,-8.8,.,1,-5,-18
O=C(NCCCN=C1NS(=O)(=O)c2ccccc21)c1ccc(S(=O)(=O)N2CCCCC2)cc1,4205,-23,0.5,5,7,-2,6
O=C(Nc1nc2ccccc2s1)C1CC(=O)N(c2ccc(Cl)cc2)C1 (stereo not given),2755,11,0.4,7,.,.,-4
COc1ccc(-c2nc3oc4cc(OC)ccc4c(=O)c3c(=O)n2Cc2ccco2)cc1,20811*,-29,28,6,5,7,98*
COc1ccc(CNC(=O)CN(C(=O)c2csnn2)c2cccc3ccccc23)cc1,3693,-13,0.6,-2,0,0,0
CCCc1nnc(NC(=O)c2cccc(OC)c2)s1,21067*,-111,0.8,-15,-9,1,-5
C=CCN1C(=O)c2ccc(C(=O)Nc3ccccn3)cc2C1=O,5019,-1,5.8,-2,-6,-7,11
COc1ccccc1C1CCN(C(=O)c2ccccc2)CC1,3532,-35,9.2,-6,9,6,15

# Full records as entered above. Values in the order: Bead autofluor	PrP 5UTR inh	RN4220 kill	BJeLR lethal	Mtb hypoxia inh	Mtb hypoxia inh growth	ugtP null kill
# COc1ccc(CNC(=O)CN(C(=O)c2csnn2)c2cccc3ccccc23)cc1 across the screens: 3693	-13	0.6	-2	0	0	0
# c1ccc2c(c1)CCc1c-2nc2ccccc2c1N1CCOCC1 across the screens: 4331	13	-2.9	5	-7	15	-6
# O=C(NCCCN=C1NS(=O)(=O)c2ccccc21)c1ccc(S(=O)(=O)N2CCCCC2)cc1 across the screens: 4205	-23	0.5	5	7	-2	6
# CCCc1nnc(NC(=O)c2cccc(OC)c2)s1 across the screens: 21067*	-111	0.8	-15	-9	1	-5

# (next part)
SMILES,Bead autofluor,PrP 5UTR inh,RN4220 kill,BJeLR lethal,Mtb hypoxia inh,Mtb hypoxia inh growth,ugtP null kill
CCOCCCNC(=O)C1CCN(S(=O)(=O)c2cc(Br)cc3c2N(C(=O)CC)CC3)CC1,4572,-9,3.8,-1,-5,-7,12
CC/C(C)=N/NC(=O)c1[nH]c2ccc(C)cc2c1-c1ccccc1,3993,-25,.,-2,.,.,.
COc1cc(C(=O)NCc2nnc(SCC(=O)N3CCc4ccccc43)o2)cc(OC)c1OC,2965,-15,3.6,0,2,9,1
COC(=O)CC1c2ccc(C(F)(F)F)cc2S(=O)(=O)N1Cc1ccccc1 (stereo not given),.,.,6.3,.,18,17,8
COc1ccc(-c2ccc(-c3cc(=O)oc4c(C(C)C)ccc(C)c34)cc2)cc1,3921,-24,-3.4,.,6,2,28
CCCOc1ccc2c(CC)cc(=O)oc2c1C,2068,4,8.5,-17,-1,8,-2
CC(=O)c1ccc(S(=O)(=O)Nc2ccc(C(=O)N(C)CC(=O)Nc3cccc(C)c3C)cc2)cc1,3111,-12,0.5,.,5,2,1
COc1ccc(NC(=O)N(C)C[C@H]2Oc3ccc(NC(=O)NC(C)C)cc3C(=O)N([C@H](C)CO)C[C@@H]2C)cc1,2872,-25,23,.,1,2,13
Cc1ccc(N2CC(C(=O)Nc3nnc(SCCN4CCOCC4)s3)CC2=O)cc1 (stereo not given),?,-14,1.9,0,7,-4,0
Cc1c(-c2ccccc2)nnn1-c1ccc(F)cc1F,3304,-54,4.5,-6,9,3,14
N#Cc1ccccc1NC(=O)C(=O)NCCCN1CCCC1=O,?,-13,2.0,-14,7,0,2
COc1cc(C2C(C#N)=C(N)Oc3n[nH]c(C)c32)cc2c1OCO2 (stereo not given),6415,-26,2.2,-2,6,5,-1
C#CCNC(=O)c1cc2sccc2n1C,4089,-24,4.7,9,-1,9,4
CN(C)CCNc1oc(COc2cccc(Cl)c2)nc1C#N,3276,-24,-11,8,4,6,-2
Cc1cc2nnc(SCC(=O)Nc3ccc(Cl)cc3)n2c(N)n1,5875,-12,2.7,-5,-10,-7,11
N#Cc1ccc(COC(=O)CSc2nnc(C3CCCCC3)n2N)cc1,3574,-8,1.1,-3,10,10,-5
Cc1sc2nc(CSc3ccccc3)nc(N3CCN(C)CC3)c2c1C,2061,-13,-0.6,7,9,13,0
COc1ccc(/C=C/C(=O)C(C(N)=O)=C2SCCS2)cc1,2666,-21,3.6,-21,10,16,9
CCOC(=O)CSc1nc2ccccc2n1CC(=O)NC(C)(C)C,21055*,-37,0.2,-5,1,4,2
O=C(Nc1c(F)cc(F)cc1F)c1cccn(Cc2ccccc2)c1=O,3471,-18,-6.4,-2,4,5,15

# The final three compounds of the part above lead into the next.
SMILES,Bead autofluor,PrP 5UTR inh,RN4220 kill,BJeLR lethal,Mtb hypoxia inh,Mtb hypoxia inh growth,ugtP null kill
COc1ccc(/C=C/C(=O)C(C(N)=O)=C2SCCS2)cc1,2666,-21,3.6,-21,10,16,9
CCOC(=O)CSc1nc2ccccc2n1CC(=O)NC(C)(C)C,21055*,-37,0.2,-5,1,4,2
O=C(Nc1c(F)cc(F)cc1F)c1cccn(Cc2ccccc2)c1=O,3471,-18,-6.4,-2,4,5,15
Cc1cccn2c(=O)nc(SCC(=O)Nc3ccc4c(c3)OCO4)nc12,5905,5,-3.3,3,-4,-4,0
COC(=O)C1=C(c2ccc(-c3ccccc3)c(F)c2)CC2CCC1N2C(=O)N1CCc2cc(OC)c(OC)cc2C1 (stereo not given),.,.,1.9,.,-3,0,-11
CCOC(=O)N1CCN(CCC(=O)c2ccc(OC)cc2)CC1,5814,-28,6.6,-4,7,-2,18
COc1cnc(-c2ccccn2)nc1Oc1cccc(Cl)c1,6069,-7,7.4,-11,-3,12,-4
Cc1ccc(C=NNC(=O)CSc2nc3ccccc3[nH]2)o1,.,.,-5.1,.,-2,-5,-4
O=C(CSc1ccsc1[N+](=O)[O-])NC1CCCC1,2070,6,3.2,5,-1,16,0
C=CCN(Cc1cccs1)C(=O)CN1CCN(S(=O)(=O)c2ccc3c(c2)OCCCO3)CC1,5952,7,2.3,.,-3,1,2
Cc1ccc(NC(=O)C(C)c2ccc([N+](=O)[O-])cc2)cc1Cl (stereo not given),2216,-9,5.2,-3,0,-2,-28
O=C(O)c1cc2c(s1)CCCC2,2459,-12,5.0,-2,5,1,7
CCn1c2ccccc2c2cc(C=NNC(=O)c3ccccc3C)ccc21,.,.,-8.9,.,7,-1,26
Cc1cc(=O)n2[nH]c(SCc3ccccc3)nc2n1,2894,-16,-2.4,0,2,-3,-7
Cn1cc(Br)c(C(=O)NC2C3CC4CC(C3)CC2C4)n1 (stereo not given),20443*,-6,4.1,-1,11,10,-11
O=C(Cc1ccccc1)Nc1ccccc1N1CCN(c2ccccc2)CC1,12356,8,-5.9,2,11,15,37
C/C(=C\c1ccco1)CN1CCC(N2CCC(C(=O)N3CCOCC3)CC2)CC1,3666,-17,2.2,-2,7,-1,10
CC(C)CCNC(=O)Cn1cc2c(n1)CCCCC2,5690,-27,0.0,-5,.,.,3
Cc1nc2ccc([N+](=O)[O-])cc2c(=O)n1Cc1cccc(F)c1,7839,-8,0.7,8,4,2,3
COc1ccccc1CNS(=O)(=O)c1cc(C(=O)NCC2CCCO2)c(Cl)cc1Cl (stereo not given),3755,-2,-1.8,.,-1,-23,-3
Cc1ccc(Cl)cc1NC(=S)NCc1cccn1C,2752,-20,0.5,0,9,11,9
COCCOc1cnn(-c2cc(Oc3ccc(C)cc3)ncn2)c(=O)c1Cl,2764,-5,-9.7,4,5,6,-6
Cc1cccc(COc2ccc(/C=N/NC(=O)c3nnn(-c4nonc4N)c3COc3ccc(F)cc3)cc2)c1,4668,-30,.,5,.,.,.
COc1cc(OC)cc(-c2oc(=O)c3cc(OC)c(OC)cc3c2C=Cc2ccc(F)cc2)c1,.,.,-2.2,.,-35,9,0
NNC(=O)c1ccc(O)cc1O,2608,-21,5.5,2,14,7,5
CNCCCOc1ccc(C)cc1OC,4001,-4,3.7,-2,13,4,8
COCc1cc(=O)oc2cc(NC(=O)c3ccc(C(C)(C)C)cc3)ccc12,3837,-8,3.5,1,7,9,14
COc1cc(/C=C(\C#N)C(=O)Nc2ccc(C(=O)O)cc2)ccc1OC(=O)c1cccc(F)c1,3905,-16,.,-3,.,.,.
O=c1/c(=C\c2cccc(O)c2)sc2nc(-c3ccccc3)c(-c3ccccc3)n12,3933,-5,.,8,.,.,.
CCC(=O)Nc1nnc(S(=O)(=O)N(C)Cc2ccco2)s1,4111,-12,1.1,2,5,3,1
COc1ccccc1/C=C/C(=O)OC(C)CN1CCOCC1 (stereo not given),21922*,-9,3.3,-2,11,7,-1
CCn1c(CNC(=O)COc2ccc(C(C)C)cc2)nnc1SCC(=O)NC1CCCCC1C (stereo not given),16120,-8,2.3,0,2,0,6
CN(C)C=Nc1c(C#N)cnn1C,.,.,6.5,.,7,0,4
CC(C)N(CCNC(=O)c1oc(=O)c2ccccc2c1-c1ccccc1)Cc1ccco1,2510,-23,-0.3,1,-3,8,5
COc1ccc(C2/C=C\CN(C(=O)CC(C)C)CC(=O)N2Cc2ccc(F)cc2)cc1 (stereo not given),3953,-20,.,-9,.,.,.
C=CCOC(=O)C1=C(C)OC(N)=C(C(=O)OCC)C12C(=O)N(CC(N)=O)c1ccccc12 (stereo not given),19254*,-16,4.7,6,2,3,1
COc1ccccc1N1CCN(S(=O)(=O)c2c(C)[nH]c(C)c2C(=O)N2CCCC2)CC1,4747,-4,3.1,-14,-2,8,1
Cc1ccc(C(=O)OCC(=O)NCCN2C(=O)CSC2=O)cc1,2583,-13,7.0,3,0,-5,6
O=C(NNC(=O)C1COc2ccccc2O1)c1ccccc1O (stereo not given),4956,-14,6.7,.,11,8,0
O=C(c1cc(S(=O)(=O)Nc2ccccc2F)c(Cl)cc1Cl)N1CCN(CCO)CC1,3729,.,-0.2,7,3,-5,-2
CSc1nsc(SC)c1NC(=O)Nc1ccccn1,10865,-1,3.3,-8,-2,11,-7
N#CCc1ccc(NS(=O)(=O)c2cccs2)cc1,16560*,-9,3.0,6,5,2,7
O=C(O)c1cc(-c2ccc(/C=N/Nc3ccc(Cl)cc3)o2)ccc1Cl,4222,-3,.,2,.,.,.
COC(=O)c1ccn(CC(=O)NC2CCCCC2)n1,5703,-8,13,6,-9,-5,-2
CCN(CC)c1ccc(C(=O)c2cnc(N=CN(C)C)s2)cc1,.,.,8.1,.,6,2,3
Cc1cn(C2CC3OCC3O2)c(=O)[nH]c1=O (stereo not given),4426,-19,1.6,1,17,7,4
CCc1nc2c(sc3nc4c(cc32)COC(C)(C)C4)c(=O)n1CCN(CC)CC,3528,-25,1.6,9,2,18,1
O=C(c1ccccc1)N1N=C(c2ccccc2)CC1c1ccccc1[N+](=O)[O-] (stereo not given),2129,-9,5.5,-4,-1,-8,3
Cc1ccc(S(=O)(=O)CC(C)N2CCOCC2)c(S(=O)(=O)CC(C)N2CCOCC2)c1 (stereo not given),23181*,-11,8.0,-2,12,8,-9
